miR-21 reporter – miR-21 reporter, rising signal; AID 2288; Potency, µM (series often up to 38.3 µM), for inactives: at the highest dose reporter change, positive = more light; HeLa miR-21 FLuc reporter, luciferase, 48 h; 340,000 tested, under 10 active; active = well fitted rising curve with a large enough effect; inconclusive = small, poorly fitted or top-dose-only effect; inactive = no such curve, though single readings can be large or run the other way;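 also: % of control where 0% means no effect; miR-21 action dims this reporter so a rising signal means less miR-21 action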
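HeLa cells endogenously expressing miR-21, stably carrying CMV-driven firefly luciferase with a downstream miR-21 binding site, 2000 cells/well. Titrations up to approximately 40 uM, 48 hours; luciferase luminescence read.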
The depositor's hits bear a star; ? = inconclusive. These rows are one share of the data. The share of hits here may be higher or lower than overall.

SMILES	miR-21 reporter
Nc1nonc1-c1nc2ccccc2n1Cc1c(Cl)cccc1Cl	-5%
O=C(CN1C(=O)C2(SCC(=O)N2c2cccc(Cl)c2)c2ccccc21)NCc1ccccc1 (stereo not given)	8%
COc1ccc(Nc2ncc3c(n2)CCN(Cc2ccccc2C)C3)c(OC)c1	-1%
CC(C)c1cnc2c(c1SCc1cccc(F)c1)c(=O)n(C)c(=O)n2C	-9%
Cc1cc(C)nc(NC(=NCCc2c[nH]c3ccc(Cl)cc23)NC(=O)c2ccccc2C)n1	-5%
COC(=O)c1cnc(N2CCN(c3ccc(OC)cc3)CC2)c2ccccc12	-8%
Cc1ccccc1NC(=O)Cn1nc(-c2ccc(F)cc2)c2cnc3ccccc3c21	-1%
Cc1cccc(NC(=O)C2CCCN(S(=O)(=O)c3c(C)n[nH]c3C)C2)c1 (stereo not given)	-21%
CNC(=O)C1CCC(Cn2c(=O)c3sccc3n(CC(=O)N3CCC(C)CC3)c2=O)CC1 (stereo not given)	-2%
COc1cc2c(C(=O)N3CCN(c4cc(Cl)ccc4C)CC3)cn(CC(C)C)c(=O)c2cc1OC	-4%
CCc1nnc(NC(=O)CSCc2cc(=O)c3ccc(C)cc3[nH]2)s1	3%
COc1ccc(-c2onc(C)c2C)cc1S(=O)(=O)NCc1cccs1	17%
CCOC(=O)c1[nH]c2ccccc2c1NC(=O)c1c(F)cccc1F	-8%
CCc1nn(CC(=O)N(CC)Cc2ccccc2)c(=O)c2cc3occc3n12	-12%
CCC(=O)N1CCc2cc(Br)cc(S(=O)(=O)CCC(=O)Nc3ccc(CC)cc3)c21	9%
Cc1ccc(N2CC(NC(=O)c3ccc(S(=O)(=O)N4CCOCC4)cc3)CC2=O)cc1 (stereo not given)	-2%
CCOc1ccccc1CNC(=O)CN1C(=O)CCc2cc(S(=O)(=O)N3CCCCC3)ccc21	?
CCCCCCNc1nc2c(c(=O)n(C)c(=O)n2C)n1Cc1cccc(C)c1	-1%
COc1cccc(N2CCN(C(=O)c3c(C)oc4ncnc(N5CCCCC5)c34)CC2)c1	-1%
CCOc1ccc(CCNS(=O)(=O)c2c(C)nc3sc(C)cn3c2=O)cc1OCC	-5%
CCOC(=O)c1cccc(NC(=O)c2cc(CN3CCCC3)on2)c1	-64%
CC(C)Oc1ccc(CNC(=O)c2cc3ccccn3n2)cc1	-64%
CC(=O)Nc1ccc(S(=O)(=O)N(Cc2ccccc2)Cc2ccccc2)cc1	9%
COc1ccc(NC(=O)c2oc3ccc(S(=O)(=O)N(C)C4CCCCC4)cc3c2C)cc1Cl	2%
CCOC(=O)N1CCN(C(=O)CN(c2cccc(Cl)c2)S(=O)(=O)c2ccccc2)CC1	0%
Other compounds
SMILES	miR-21 reporter
Cc1ccc(NC(=O)Cn2c(SCc3cccc(F)c3)nc3ccncc32)c(C)c1	-9%
Cc1cc(OCC(O)CN2CCN(c3cccc(Cl)c3)CC2)ccc1Cl (stereo not given)	-1%
COCCCn1c(=O)c2sccc2n2c(CCCC(=O)Nc3cccc(OC)c3)nnc12	2%
COc1ccccc1/C=C/c1nc(C#N)c(NC2CCCCC2)o1	4%
CC(C)Oc1cccc(C(=O)Nc2ccc3oc(-c4ccccc4)nc3c2)c1	-6%
O=C(NCc1ccccc1)c1ccc2c(c1)nc1n2CCOC1	-51%
CCOC(=O)c1ccc(CN(Cc2ccc(F)cc2)S(=O)(=O)c2cc(C(=O)Nc3ccccc3CC)ccc2F)cc1	6%
COc1ccccc1-c1nc2n(n1)C(c1ccccc1Cl)C(C(=O)Nc1cccnc1)=C(C)N2 (stereo not given)	0%
Cc1cccc(C(=O)Nc2cccc(C(=O)OCc3cc(=O)n4nc(C(C)C)sc4n3)c2)c1	-38%
O=C(Nc1ccc(Br)cc1)c1cccc(C(=O)Nc2ccc(Br)cc2)c1	-22%
COc1ccc(F)cc1NC(=O)C1CCN(c2nc(-c3ccc(OC)c(OC)c3)no2)CC1	?
COc1ccc(Cl)cc1Nc1nc2ccc(C(=O)c3ccccc3)cc2n2cnnc12	2%
CC1CN(C(=O)Nc2ccc(C(=O)NCc3ccccc3F)cc2)c2ccccc2S1 (stereo not given)	11%
COc1ccc(OC)c(NC(=O)C2CCN(S(=O)(=O)c3ccc(C)cc3)CC2)c1	-4%
COc1ccc(OC)c(C2C(C(=O)Nc3ccc(C)cc3C)=C(C)Nc3c(C(=O)Nc4ccc(F)cc4)cnn32)c1 (stereo not given)	0%
CC(NC(=O)c1c2c(nc3ccccc13)C(=O)N(C1CCCCC1)C2)c1ccccc1 (stereo not given)	12%
COc1ccc(-n2ccnc(NCc3ccc(C)cc3)c2=O)cc1OC	-3%
COc1ccc(OC)c(S(=O)(=O)Nc2cc3c(cc2C)n(C)c(=O)c(=O)n3C)c1	-6%
Cc1ccc(CNc2ncnc3onc(-c4ccc(F)cc4)c23)cc1	0%
O=C(Nc1cccc(Cl)c1)c1csnn1	-23%
COc1ccc(-c2cc(C(=O)Nc3c(C)nn(Cc4ccccc4C)c3C)no2)cc1	2%
CCOc1ccccc1NC(=O)Cn1cnc2sc(C)c(S(=O)(=O)N3CCC(C)CC3)c2c1=O	8%
COc1ccc2c(c1)CCc1c(C(=O)Nc3cnn(Cc4ccc(Cl)cc4Cl)c3)noc1-2	0%
Cc1cc(Cl)ccc1NC(=O)CCS(=O)(=O)c1ccc2c(c1)CC(C)N2C(=O)C1CC1 (stereo not given)	?
COc1ccc(Cn2nnc3c(=O)[nH]c(C4CCCN(C(=O)c5ccc(C)cc5)C4)nc32)cc1 (stereo not given)	-27%

In the list so far, these have bromine.
SMILES	miR-21 reporter
CCC(=O)N1CCc2cc(Br)cc(S(=O)(=O)CCC(=O)Nc3ccc(CC)cc3)c21	9%
O=C(Nc1ccc(Br)cc1)c1cccc(C(=O)Nc2ccc(Br)cc2)c1	-22%

(next part)
SMILES	miR-21 reporter
CCS(=O)(=O)N1CC(=O)N(c2ccc(Cl)cc2C)C(C)(C(=O)NC2CCCCCC2)C1 (stereo not given)	-2%
COc1ccc(OC)c(C2c3c(oc4ccc(C)cc4c3=O)C(=O)N2CCCN(C)C)c1 (stereo not given)	-5%
COc1cc(C2NC(=O)NC(C)=C2C(=O)Nc2cc(C)cc(C)c2)ccc1O (stereo not given)	-4%
Cc1ccc(Cn2cc3c(n2)-c2c(oc(C(=O)Nc4ccc(F)cc4F)c2C)CC3)cc1	-6%
Cc1nnc(N2CCN(c3ccc(Cl)cc3)CC2)c2c1nnn2Cc1ccc(F)cc1	6%
Cc1ccc(Cl)cc1NC(=O)c1ccc(-c2nc(CSc3ccccc3)c(C)o2)cc1	20%
O=S(=O)(NCc1ccccc1)c1ccc2[nH]c3c(c2c1)CCCCC3	?
Cc1ccc(-c2cc(C(=O)Nc3cc([N+](=O)[O-])ccc3C)no2)cc1F	7%
CC(C)c1ccc(NC(=O)Cn2c(=O)n(CCc3ccccc3)c(=O)c3ccccc32)cc1	-9%
O=C(NCC(c1cccnc1)N1CCc2ccccc2C1)C(=O)Nc1ccccc1F (stereo not given)	-39%
CCc1nnc(SCC(=O)Nc2ccc(OC)c(OC)c2)c2cc3occc3n12	-1%
CCCc1cc(=O)[nH]c(Nc2cc(C)cc(C)c2)n1	14%
COc1cc2c(cc1OC)C(COc1ccc3c(C)cc(=O)oc3c1)N(C(=O)c1ccccc1F)CC2 (stereo not given)	1%
Cc1ccc(CSC2=Nc3ccccc3C3=NC(CCC(=O)NCc4cccs4)C(=O)N23)c(C)c1 (stereo not given)	?
COc1ccc(C2=CC(c3ccc(N(C)C)cc3)n3nnnc3N2)cc1 (stereo not given)	-42%
O=C(NCc1ccccc1Cl)c1nnc(Cc2cccc(F)c2)o1	24%
O=S(=O)(NCCc1nnc2ccc(SCc3ccccc3Cl)nn12)c1ccccc1	-1%
COc1ccccc1CNC(=O)CCCn1c(=O)c2ccccc2n(Cc2ccccc2C#N)c1=O	-1%
COc1ccc(-c2cc3nc(C)c(CCC(=O)NC4CCCCC4)c(C)n3n2)c(OC)c1	1%
CCc1ccc(-n2nc3ccc(NC(=O)c4cc5ccccc5o4)cc3n2)cc1	-6%
COc1cccc(N2CCN(C(=O)c3ccc4c(=O)n(CCc5ccccc5)c(=O)[nH]c4c3)CC2)c1	?
O=C(CSc1ncc2c(n1)-c1ccccc1N(Cc1ccc(F)cc1)S2(=O)=O)c1ccc(Br)cc1	-2%
O=C(/C=C/c1ccc(Cl)cc1)Nc1nc(-c2cccs2)ns1	4%
Nc1c(C(=O)Nc2ccccc2Br)sc2nc(-c3cccs3)ccc12	-62%
CCOCN(C(=O)Cn1c(C)nc2ccccc21)c1c(C)cccc1CC	-13%
Carrying on.
SMILES	miR-21 reporter
CCCCn1cc(S(=O)(=O)c2ccc(OC)cc2)c(=O)c2cc(F)c(N3CCOCC3)cc21	-13%
CCOC(=O)CC(NC(=O)c1cc2cc(Br)cc(OC)c2oc1=O)c1ccc(OC)cc1 (stereo not given)	5%
Cn1cnc(S(=O)(=O)N2CCC(C(=O)NCc3ccccc3Cl)CC2)c1	0%
Cc1ccc(C)c(NC(=O)Cn2nnc(C(=O)NCc3ccccc3Cl)c2N)c1	-29%
COC(=O)c1c(NC(=O)CCCOc2ccc(C)cc2)sc2c1CCCC2	-3%
COc1ccccc1-c1nnc(SCC(=O)c2ccc(Cl)cc2)n1-c1ccccc1	23%
Cc1ccc2[nH]c(=O)c3cc(C(=O)NCc4cccc(Cl)c4)sc3c2c1	-4%
COc1cccc(CNC(=O)CSc2c3c(nc4ccc(Cl)cc24)CCCC3)c1OC	22%
N#Cc1ccccc1CSc1nnc2ccc3ccccc3n12	-13%
Cc1ccccc1CN1C(=O)c2ccccc2Sc2ccc(C(=O)NCCc3ccccc3)cc21	9%
O=C(NCC(c1ccco1)S(=O)(=O)c1cccs1)c1ccc(F)c(F)c1 (stereo not given)	2%
CCc1ccccc1NC(=O)C1=C(C)C(=O)OC12CCCCCC2	-2%
CCc1ccccc1NC(=O)CCNS(=O)(=O)c1ccc2c(c1)CCCC(=O)N2	-2%
COc1cc(NC(=O)c2cc3cc4cc(OC)ccc4nc3o2)cc(OC)c1	-10%
COCCn1c(=N)c(C(=O)NCC2CCCO2)cc2c(=O)n3ccccc3nc21 (stereo not given)	-1%
O=C(Cn1c(=O)oc2cc(S(=O)(=O)N3CCCC3)ccc21)NCc1ccc(Cl)cc1	?
O=C(NCCc1ccccc1)c1ccc2c(c1)N(Cc1ccccc1Cl)C(=O)c1ccccc1S2	2%
Cc1ccccc1NC(=O)c1ccc(F)c(S(=O)(=O)N2CCc3ccccc3C2)c1	2%
O=C(CC1N=C2c3ccccc3N=C(SCc3ccccc3F)N2C1=O)NCc1cccs1 (stereo not given)	-28%
Cc1cccc(-c2nc3c(cnn3-c3ccccc3)c(=O)n2-c2ccc(Br)cc2)c1	-5%
Cc1nn(CC(=O)N2CCCCC2)c(=O)c2cc3occc3n12	-12%
Cc1ccc(NC(=O)c2c(C)oc3ncnc(N4CCCCC4)c23)cc1Cl	-5%
CC(C)(C)c1ccc(C(=O)NC(Cc2c[nH]c3ccccc23)C(=O)OCC(=O)c2ccc(Br)cc2)cc1 (stereo not given)	-5%
Nc1nc(Nc2cccc(Cl)c2)sc1C(=O)c1ccc(F)cc1	-16%
COc1ccccc1-c1nc(S(=O)(=O)c2ccccc2)c(N2CCC(C)CC2)o1	-2%

Copied from the list:
N#Cc1ccccc1CSc1nnc2ccc3ccccc3n12 in miR-21 reporter is listed with -13%
CC(C)(C)c1ccc(C(=O)NC(Cc2c[nH]c3ccccc23)C(=O)OCC(=O)c2ccc(Br)cc2)cc1 (stereo not given) in miR-21 reporter is listed with -5%
CCc1ccccc1NC(=O)C1=C(C)C(=O)OC12CCCCCC2 in miR-21 reporter is listed with -2%
Cc1ccc2[nH]c(=O)c3cc(C(=O)NCc4cccc(Cl)c4)sc3c2c1 in miR-21 reporter is listed with -4%

Six compounds drawn at random from those above, as already listed:
SMILES	miR-21 reporter
Cc1cccc(-c2nc3c(cnn3-c3ccccc3)c(=O)n2-c2ccc(Br)cc2)c1	-5%
Cc1ccc(NC(=O)c2c(C)oc3ncnc(N4CCCCC4)c23)cc1Cl	-5%
O=C(NCCc1ccccc1)c1ccc2c(c1)N(Cc1ccccc1Cl)C(=O)c1ccccc1S2	2%
O=C(NCC(c1ccco1)S(=O)(=O)c1cccs1)c1ccc(F)c(F)c1 (stereo not given)	2%
Cc1ccccc1NC(=O)c1ccc(F)c(S(=O)(=O)N2CCc3ccccc3C2)c1	2%
CCOC(=O)CC(NC(=O)c1cc2cc(Br)cc(OC)c2oc1=O)c1ccc(OC)cc1 (stereo not given)	5%

Carrying on:
SMILES	miR-21 reporter
CCCCNc1cc(NC2CCCCC2)c2c3c(onc13)-c1ccccc1C2=O	6%
CCc1ccccc1NS(=O)(=O)c1ccc2[nH]cc(C(=O)N3CCCCC3)c(=O)c2c1	-7%
CCC(Cc1ccccc1)NC(=O)Cn1ncc2c3ccccc3n(Cc3ccc(F)cc3)c2c1=O (stereo not given)	1%
CCc1ccccc1NC(=O)c1sc2nc3c(cc2c1N)CN(Cc1ccccc1)CC3	22%
COc1cccc(Cn2c(CNS(=O)(=O)c3ccc(F)c(Cl)c3)nc3cccnc32)c1	?
COc1cc2[nH]c(=O)n(Cc3ccc(C(=O)NCc4ccccc4)cc3)c(=O)c2cc1OC	30%
Cc1ccccc1Cn1c2ccccc2c2cnn(CC(=O)NCCCc3ccccc3)c(=O)c21	-18%
CC(=O)c1ccc(NC(=O)Cn2nc(C(F)(F)F)c3c2CCCC3)cc1	-4%

Source: PubChem BioAssay
